FGF22 binding: binders of recombinant human FGF22 by thermal shift. SYPRO orange fluorescence; percent of sucrose octasulfate shift, DMSO zero. 340,000 tested, 1.5% active. calls only at 9.99 µM. Q9HCT0;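 active = melting point raised past a set limit in the mean and every replicate; inconclusive = no clear call; three in four hits are not shown here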
Target sequence (Q9HCT0 whole entry, looked up): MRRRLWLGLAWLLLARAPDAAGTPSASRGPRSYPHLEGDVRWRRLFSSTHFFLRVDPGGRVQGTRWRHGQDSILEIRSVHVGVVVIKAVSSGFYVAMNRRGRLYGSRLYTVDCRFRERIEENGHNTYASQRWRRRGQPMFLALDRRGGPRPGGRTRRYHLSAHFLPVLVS
RanGTP-Imp inh: inhibitors of RanGTP-importin-beta interaction, primary screen, biochemical, FRET, CFP-Ran, YFP-importin-beta, homogeneous. cell-free CFP-Ran/YFP-importin-beta FRET ratio. inhibition, % (test concentration not listed). 300,000 tested, 1.1% active. AID 2216;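 active = most replicates above 15%; inconclusive = exactly half above 15%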;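 also: 0% = DMSO wells and 100% = Ran loaded with GDP instead of GTP; wells of about 40 µL received 100 nL stock; the first replicate is given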
HNF4A DNA FP: change in binding of human HNF4 alpha to DNA; P41235; HNF4a-FITC DNA binding, fluorescence polarization, 1 h; activity change, % at 10 µM; 360,000 tested, 0.3% active; in the data active = activity change above about 30%, passing the limit was not always enough;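 also: controls were the assay level and a saturating level of protein; the project sought stronger binding though the title names inhibitors; some compounds called inactive have numbers as strong as hits; positive values seem to mean higher polarization but the record does not say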
MLL AF4-AF9 inh: MLL-AF4/AF9 protein interaction inhibition; P42568; AlphaScreen, biotin-AF4 peptide binding to FLAG-AF9; inhibition, % at 10 µM; 350,000 tested, 0.47% active; AID 651704;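 active = every replicate reaching a set inhibition limit, whatever the replicate mean, cut at about 25% in these data; inconclusive = mean inhibition reaches that limit but some replicates miss it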;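 also: 0% = plate neutral control median and 100% = total signal loss; the record names both 10 and 1 µM as test concentration; the first replicate is given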
Target sequence (P42568 whole entry, looked up): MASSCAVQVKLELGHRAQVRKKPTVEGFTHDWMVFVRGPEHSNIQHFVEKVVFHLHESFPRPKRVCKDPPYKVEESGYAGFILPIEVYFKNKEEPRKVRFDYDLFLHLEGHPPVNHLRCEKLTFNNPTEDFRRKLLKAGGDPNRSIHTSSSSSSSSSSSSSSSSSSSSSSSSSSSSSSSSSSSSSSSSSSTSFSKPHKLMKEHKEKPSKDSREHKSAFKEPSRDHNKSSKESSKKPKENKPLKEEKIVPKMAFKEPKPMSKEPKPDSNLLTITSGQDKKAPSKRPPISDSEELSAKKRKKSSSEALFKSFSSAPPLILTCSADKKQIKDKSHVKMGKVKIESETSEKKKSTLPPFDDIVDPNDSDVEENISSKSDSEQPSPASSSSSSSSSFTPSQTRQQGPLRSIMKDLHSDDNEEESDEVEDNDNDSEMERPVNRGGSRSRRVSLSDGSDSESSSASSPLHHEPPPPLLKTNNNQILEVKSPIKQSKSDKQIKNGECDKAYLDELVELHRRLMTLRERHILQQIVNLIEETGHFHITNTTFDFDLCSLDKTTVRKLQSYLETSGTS
UCH37 inh: blocks the human deubiquitinase UCH37. AID 588478. 330,000 tested, 0.33% active. purified proteasome/UCH37, Ub-AMC cleavage fluorescence. inhibition, % (no concentration beside the values). Q9Y5K5;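 active = mean of two replicates above 20%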;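 also: 0% = compound-free wells with enzyme and 100% = wells lacking proteasome; stock transfer was 100 nL into about 20 µL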
Target sequence (Q9Y5K5 whole entry, looked up): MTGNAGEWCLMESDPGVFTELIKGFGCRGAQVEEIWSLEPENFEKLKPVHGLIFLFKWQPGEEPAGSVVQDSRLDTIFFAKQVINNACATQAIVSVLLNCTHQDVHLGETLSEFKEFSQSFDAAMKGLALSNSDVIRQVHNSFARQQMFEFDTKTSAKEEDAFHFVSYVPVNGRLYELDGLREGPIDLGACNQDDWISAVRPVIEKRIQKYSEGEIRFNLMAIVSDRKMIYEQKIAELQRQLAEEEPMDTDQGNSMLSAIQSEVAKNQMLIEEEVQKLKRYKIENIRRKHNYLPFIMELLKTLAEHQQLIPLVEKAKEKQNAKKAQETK
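Schedule: 30 min plus 25 min, room temperature / Material: human UCH37 within purified proteasomes / Technique: AMC fluorescence intensity at 355/460 nm / Buffer or medium: pH 7.4 Tris-HCl (50 mM) with ovalbumin, ATP-MgCl2, DTT / Controls: wells without proteasome as full block, compound-free enzyme plus substrate as uninhibited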
Vif A3G: HIV-1 Vif–A3G interaction blockers – biochemical, TR-FRET, GST-Vif 1-94, biotin-A3G peptide, dose response retest, primary screen (AID 1117319); TR-FRET GST-Vif / biotin-A3G peptide binding; higher % means a stronger effect; test concentration not given here; strong numbers were not always called active; 260,000 tested, 0.57% active; inhibition, %; hits with a dose series show IC50 in µM;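 active = above the screen mean plus three standard deviations and confirmed in dose response; inconclusive = results disagree or hit not tested in dose response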;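 also: Vif residues 1-94 fused to GST binding biotinylated APOBEC3G peptide 110-148; 0% = full assay without inhibitor and 100% = GST in place of GST-Vif; retest series ran down from 100 µM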
Ecoli growth: blocks Escherichia coli growth; OD600, 23 h; active compounds read low; OD600 absorbance (test concentration not listed); 330,000 tested, 0.21% active; AID 1053175;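 active = OD600 absorbance below the run mean of sample wells minus 3.6 SD, in any replicate, cut at about 0.56 in these data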;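 also: stock transfer was 300 nL into about 60 µL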
* marks the source's active call; other numbers are inactive results; i = inactive; ? = inconclusive; . = not tested or not shown. A portion of the library; the hit share may differ from the screen's.

mol,FGF22 binding,RanGTP-Imp inh,HNF4A DNA FP,MLL AF4-AF9 inh,UCH37 inh,Vif A3G,Ecoli growth
CC(C(=O)Nc1ccc(S(=O)(=O)N2CCOCC2)cc1)N(c1ccccc1)S(C)(=O)=O (stereo unspecified),.,3.3,2.0,.,-2.0,-7%,0.78
COc1ccc(NC(=O)CSc2nnc(CNC(=O)COc3ccc(Cl)cc3)o2)c(OC)c1,.,4.2,3.5,.,-1.2,-5%,0.68
CC(C)(C)OC(=O)NC(CC(=O)OCc1ccccc1)C(=O)O (stereo unspecified),i,5.1,-2.8,-15,2.5,-4%,0.64
N=c1c2c(ncn1CCN1CCOCC1)Oc1cc(O)ccc1C2c1ccccc1 (stereo unspecified),i,?,-11,-44,3.2,2%,0.71
COc1ccc(-c2ccc(-c3noc(-c4cccc(OC)c4)n3)c(OC)n2)cc1,.,8.8,-3.0,.,i,14%,0.72
Cc1nn(CCOc2ccccc2)c(=O)n1-c1ccc(F)cc1,.,0.8,-3.0,.,.,11%,.
Cc1ccc(S(=O)(=O)NNC(=O)c2c(O)c3ccccc3[nH]c2=O)cc1,i,-1.9,0.1,-20,-3.1,16%,0.72
c1ccc2sc(C3CCN(Cc4nnnn4Cc4ccc5c(c4)OCO5)CC3)nc2c1,.,-2.6,1.3,.,0.5,-4%,0.69
N#Cc1ccc(S(=O)(=O)NC[C@H]2O[C@@H](n3ccc(N)nc3=O)[C@H](O)[C@@H]2O)cc1,i,.,1.7,-0.9,.,-2%,.
CC(=O)N1CC(C)Sc2ccc(S(=O)(=O)NCc3ccccc3Cl)cc21 (stereo unspecified),i,-1.4,0.2,2.0,2.1,?,0.72
CCCCn1c(N)c(N(CC(C)C)C(=O)CSc2nnc(-c3ccc(Cl)cc3)o2)c(=O)[nH]c1=O,i,7.0,0.1,13,0.4,-4%,0.62
COc1cccc(C(=O)NNC(=O)Cc2ccc(Cl)cc2)c1,.,?,3.8,-3.1,1.0,5%,0.67
CC1Cc2ccccc2N1C(=O)CSc1nncs1 (stereo unspecified),i,.,1.6,-3.0,-0.3,-4%,0.68
Cc1ccc2cc(CN(c3ccccc3)S(=O)(=O)c3ccccc3)c(=O)[nH]c2c1,i,?,-1.0,-1.8,0.3,7%,0.65
O=C(c1ccccc1F)N1CCC2CC1c1cc(N3CCCCC3)ccc12 (stereo unspecified),i,.,9.2,11,.,1%,.
COc1ccc(-c2oc3ccc(N4CCOCC4)cc3c2C#Cc2ccc(N)cc2)cc1,.,1.4,1.6,.,-90,.,0.7
CCOC(=O)C1=C(COC(=O)c2ccc(Cl)nc2)NC(=O)NC1C (stereo unspecified),i,.,1.7,3.2,0.3,5%,0.66
Cc1cc(C)n(-c2nc(NCCCN(C)C)c3c4c(sc3n2)CCCC4)n1,i,0.9,5.2,.,-5.7,4%,0.69
Cc1ccc(/C=C(\C#N)c2nc3ccccc3[nH]2)s1,.,-2.7,5.2,.,2.4,6%,0.7
CC1CCN(c2cc(C#N)c(C#N)cc2[N+](=O)[O-])CC1,.,-1.0,0.0,.,5.1,17%,0.7

(listing goes on)
mol,FGF22 binding,RanGTP-Imp inh,HNF4A DNA FP,MLL AF4-AF9 inh,UCH37 inh,Vif A3G,Ecoli growth
COc1ccc(CN2C(=O)c3cccnc3C2=O)cc1S(=O)(=O)NC(C)C,i,-2.8,-3.2,-1.4,1.3,-2%,0.68
CCC(C)(C)NC(=O)/C=C/c1cccs1,i,6.4,1.1,0.2,-11,10%,0.68
C=C(C)COc1ccc(C2NC(=O)c3ccccc3O2)cc1OCC (stereo unspecified),i,0.3,3.5,2.6,1.6,.,0.64
O=C(Cc1ccsc1)OCC(=O)c1ccccc1,i,.,-1.1,-1.6,-0.7,-1%,0.67
COc1cc(OC)c2ccc(=O)oc2c1C(CC(=O)N1CCOCC1)c1ccc2c(c1)OCO2 (stereo unspecified),i,-2.6,0.3,.,-3.2,5%,0.67
O=c1[nH]c(CN2CCc3ccccc3C2)nc2ccccc12,.,4.2,-6.9,.,-4.8,4%,0.66
COc1ccccc1-c1noc(CCC(=O)Nc2cc(C(F)(F)F)ccc2Cl)n1,.,2.2,-0.1,.,2.1,-7%,0.72
CCN(C(=O)COC(=O)CCn1c(C)csc1=O)c1c(N)n(Cc2ccccc2)c(=O)[nH]c1=O,i,.,0.5,-1.1,4.5,.,0.66
Cc1ccc(-c2nc3ncccn3c2Nc2ccc3c(c2)OCO3)o1,.,0.4,-0.8,.,6.4,30%,0.67
N#CCCn1cc(C(N)=O)c(-c2cccs2)n1,i,-4.4,3.7,-1.6,4.0,7%,0.7
C=CCOc1cccc(C(=O)Nc2ncn[nH]2)c1,i,-3.4,0.5,-1.9,0.4,.,0.69
Cc1cccc2sc(NS(=O)(=O)c3ccccc3)nc12,i,?,-0.9,-1.9,-0.6,-1%,0.73
CCOC(=O)C(C)CC(C)C(=O)N1CCOCCN(C(=O)C(C)CC(C)C(=O)OCC)CCOCC1 (stereo unspecified),.,1.9,4.4,.,-1.8,-3%,0.69
COc1ccc(/C=C(\C#N)C(=O)OCC(=O)NCc2ccccc2Cl)cc1,i,-2.8,4.4,0.5,-4.4,-2%,0.72
COc1cccc(NC(=O)COC(=O)CCS(=O)(=O)c2ccc(C)cc2)c1,i,-3.9,-2.3,-0.2,3.1,6%,0.74
COc1ccc(CNc2nn[nH]n2)cc1OC,.,2.3,2.5,.,1.3,-1%,0.68
C=CCn1c(SCC(=O)NC23CC4CC(CC(C4)C2)C3)nc(O)cc1=O,.,-1.1,2.1,.,-3.2,20%,0.77
COc1ccc(OCC(=O)Nc2cc(-c3nn(C)c(=O)c4ccccc34)ccc2N2CCOCC2)cc1,i,-2.0,0.1,12,0.5,18%,0.68
CCc1cccc(C)c1NC(=O)COC(=O)Cn1c(C)csc1=O,i,3.6,-3.7,0.1,0.5,12%,0.64
COc1cc2c(cc1OC)C1=NC(=O)CN1C(SCc1ccccc1)=N2,.,.,3.1,.,-25,7%,0.74

Compounds listed so far with a furan ring, fused or not, in the order listed:
mol,FGF22 binding,RanGTP-Imp inh,HNF4A DNA FP,MLL AF4-AF9 inh,UCH37 inh,Vif A3G,Ecoli growth
COc1ccc(-c2oc3ccc(N4CCOCC4)cc3c2C#Cc2ccc(N)cc2)cc1,.,1.4,1.6,.,-90,.,0.7
Cc1ccc(-c2nc3ncccn3c2Nc2ccc3c(c2)OCO3)o1,.,0.4,-0.8,.,6.4,30%,0.67

(list continues)
mol,FGF22 binding,RanGTP-Imp inh,HNF4A DNA FP,MLL AF4-AF9 inh,UCH37 inh,Vif A3G,Ecoli growth
CN1CCN(CC(=O)NN2CC(=O)N(c3ccc(F)cc3)CC2=O)CC1,i,5.9,1.7,3.6,3.3,-5%,0.69
CCn1nc(NC(=O)Cc2ccc(OC)cc2)c2cc3cccc(C)c3nc21,i,24*,-2.3,-8.5,-178,-12%,0.72
COC(=O)c1cc(=O)n(Cc2ccco2)c(=Nc2ccc(F)cc2)s1,.,5.9,-0.7,.,5.3,-9%,0.77
O=C(CNC(=O)/C(=C\c1ccc(F)cc1)NC(=O)c1ccccc1)OCc1ccccc1,.,3.7,-0.9,.,27*,-1%,.
CC(=O)c1ccc(NC(=O)c2cnn3ccccc23)cc1,i,1.0,0.7,-11,5.1,2%,0.78
COc1ccc(C2(O)CCN(Cc3nnnn3Cc3ccc(F)cc3)CC2)cc1,i,-1.1,-0.3,-2.1,-0.2,45%,0.72
COc1ccc(CC(C)N2CCN(c3ccccc3OC)CC2)cc1OC (stereo unspecified),.,5.0,-0.4,.,3.6,-5%,0.74
Cc1ccc(S(=O)(=O)Oc2ccccc2/C=N/O)cc1,i,0.5,2.0,4.2,.,-8%,.
O=C(Nc1cccc(Cl)c1)OCCOc1ccccc1,i,0.0,4.0,-10,1.6,-7%,0.63
CCN(c1cc(C)cc(C)c1)S(=O)(=O)c1nnc(NC(=O)C(C)(C)C)s1,i,-6.6,5.0,-6.7,2.8,2%,0.7
Cc1cc(C)c2c(=O)[nH]cnc2n1,i,1.2,2.6,-3.0,3.4,4%,0.69
COc1ccc(OCC(O)CNCc2ccco2)cc1 (stereo unspecified),.,-0.9,0.1,.,2.9,1%,0.66
COc1ccc(OC)c(CN2CCN(C(=O)c3cccc(S(=O)(=O)N(C)c4ccccc4)c3)CC2)c1,i,.,2.4,6.5,.,.,.
CC(Nc1ccc2c(c1)OCCO2)C(=O)N1c2ccccc2CC1C (stereo unspecified),.,?,-1.8,16,2.2,-6%,0.67
CC(C)CC(N)c1cn([C@@H](CCC(=O)O)C(=O)N2CCNCC2)nn1 (stereo partly specified),i,1.2,-3.2,1.0,-0.2,9%,.
CCCOP(=O)(c1ccc(N(C)C)cc1)C(O)c1ccc(Cl)cc1 (stereo unspecified),i,-7.5,-3.8,0.7,1.9,-1%,0.66
Cc1cccc(Cn2ccc(NC(=O)c3cccnc3)n2)c1,i,-1.3,-2.3,2.2,-0.4,5%,0.73
O=C(O)c1cccc(NC(=O)c2cc(-c3cccc(Cl)c3)nc3ccccc23)c1,.,3.6,-3.0,1.0,2.0,-1%,0.67
O=S(=O)(c1ccc2c(c1)OCCO2)N1CCC(c2nc3ccccc3[nH]2)CC1,.,3.1,-2.3,.,2.1,-2%,0.73
Cc1ccccc1NC(=O)CCS(=O)(=O)c1cccc2nonc12,i,?,-2.4,-3.3,4.4,-1%,0.73

Single records (already shown). Order of screens: FGF22 binding	RanGTP-Imp inh	HNF4A DNA FP	MLL AF4-AF9 inh	UCH37 inh	Vif A3G	Ecoli growth
CCn1nc(NC(=O)Cc2ccc(OC)cc2)c2cc3cccc(C)c3nc21 is listed with i	24*	-2.3	-8.5	-178	-12%	0.72
O=C(Nc1cccc(Cl)c1)OCCOc1ccccc1 is listed with i	0.0	4.0	-10	1.6	-7%	0.63

More compounds follow:
mol,FGF22 binding,RanGTP-Imp inh,HNF4A DNA FP,MLL AF4-AF9 inh,UCH37 inh,Vif A3G,Ecoli growth
COc1cc(NS(=O)(=O)c2cc(C)ccc2OC)c(OC)cc1Cl,.,-3.1,3.0,.,3.7,?,0.68
O=C(CNc1ccc2ccccc2c1)N/N=C/c1ccncc1,i,8.6,0.8,7.1,.,-5%,.
Cc1ccc(-n2nnnc2CNC(=O)C2CC(=O)N(c3ccccc3)C2)cc1C (stereo unspecified),i,2.7,-2.0,-6.4,5.8,-1%,0.68
COc1ccccc1N1CCN(CC(=O)Nc2ccc(CN3CCCCC3)cc2)CC1,.,1.4,1.5,.,1.8,7%,0.69
CCCCOCCCNC(=O)C[C@@H]1C[C@@]2(C(=O)OCC)CCC=C2N(CCC2=CCCCC2)C1=O,i,.,6.6,0.7,.,.,.
CCOC(=O)c1ccc(Nc2cc(C)nc(C)c2C(=O)OCC)cc1,.,-0.5,-6.6,.,4.1,?,0.65
O=[N+]([O-])c1ccc2nc(SCc3ccccc3Cl)sc2c1,.,2.2,0.2,.,1.1,3%,0.66
O=C(c1ccc(Cl)cc1)C1CCN(C(=O)C2CC2)CC1,.,4.0,1.5,.,2.5,-4%,0.68
COc1ccc(C2CC(=O)c3cnc(N4CCN(Cc5ccccc5)CC4)nc3C2)cc1 (stereo unspecified),.,-0.4,0.5,.,1.9,-2%,0.77
CCCC(=O)C1=C(O)C(C(=O)OC)C(C)(C)CC1=NC(C)C (stereo unspecified),.,1.9,5.6,.,0.1,1%,0.72
O=C(N/N=C/c1ccc(O)c(O)c1)c1cc(-c2ccccc2)nc2ccccc12,i,-3.7,-2.0,?,.,.,.
O=C(NC1CCCCC1)c1ccc(-n2cncn2)c([N+](=O)[O-])c1,i,.,3.9,-0.7,0.6,-2%,0.69
Nc1nccc2c1ncn2C1OC(CO)C(O)C1O (stereo unspecified),.,.,-1.2,-7.4,.,3%,.
NC(N)=S,i,.,-0.3,-3.0,-0.6,.,0.7

Assay outcomes deposited in PubChem by several laboratories.
